Source: PubChem BioAssay (National Center for Advancing Translational Sciences (NCATS))
RE007 growth inh: less growth of the S. pombe RE007 Vpr strain; Potency, µM (titrated, usually from 92.2 µM), without a hit: at the highest dose activity change, negative = less growth; 360,000 tested, 0.21% active; S. pombe RE007 Vpr strain, BacTiter-Glo ATP luminescence, 24 h; control for the full effect not named in the record; active = well fitted falling curve with a large enough effect; inconclusive = small, poorly fitted or top-dose-only effect; inactive = no such curve, though single readings can be large or run the other way;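 note: % is set by controls: 0 for no effect and ±100 for the full control effect; nearly all actives have a fitted effect of over 50% in size; the assay follows cell death caused by Vpr and the record does not say whether a fall means rescue or toxicity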
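Fission yeast RE007 carrying one integrated HIV-1 vpr copy, seeded at OD 0.01 in PMG+AL medium with 23 nL pinned compound. Grown 24 h at 30 degrees; viability read by BacTiter-Glo luminescence after 5 min.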
Marburg entry inh: Marburg virus entry inhibition. Marburg virus pseudotyped entry inhibition, cell reporter; control for the full effect not named in the record; about a third of the inactives were read at about 46 µM. Potency, µM (titrated, usually from 37.8 µM), for the others: at the highest dose activity change, negative = inhibition, actives largely listed as inhibitors. 300,000 tested, 1.8% active. AID 540276; active = well fitted inhibition curve with a large enough effect; inconclusive = small, poorly fitted or top-dose-only effect, or effect the other way; inactive = flat fitted curve, though single readings scatter; tested in HEK293 cells; about a fifth of its hits are not listed in these tables; note: % is set by controls: 0 for no effect and ±100 for the full control effect; luciferase read-out
NS1 function inh: inhibitors of influenza NS1 protein function | S. cerevisiae slowed by influenza A NS1, growth recovery by OD600 | Potency, µM (titrated, usually from 46.1 µM), for the others: at the highest dose activity, positive = more growth | 270,000 tested, 0.4% active; active means well fitted rising curve with a large enough effect; inconclusive means small, poorly fitted or top-dose-only effect; inactive means no such curve, though single readings can be large or run the other way; note: nearly all actives have a fitted effect of over 50% in size
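Recovery from NS1-induced slow growth read by OD600 in budding yeast switched to galactose assay medium (pH 6.0, -URA) at 1:100 dilution. Compound 23 nl per well; the matching strain lacking NS1 serves as control.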
SARS PLpro yeast: SARS-CoV PLP inhibition in yeast; S. cerevisiae expressing SARS-CoV PLpro, growth rescue; control for the full effect not named in the record; Potency, µM (titrated, usually from 32.9 µM), without a hit: at the top dose activity, positive = growth rescue; 330,000 tested, 0.19% active; active means well fitted rising curve with a large enough effect; inconclusive means small, poorly fitted or top-dose-only effect; inactive means no such curve, though single readings can be large or run the other way; note: 0% is about no effect; nearly all actives have a fitted effect of over 55% in size; growth read by luminescence after 48 h
StopGo reporter: lowers the luciferase signal of an FMDV 2A StopGo reporter; human cells with a luciferase reporter of 2A StopGo recoding; control for the full effect not named in the record; Potency, µM (top dose mostly 57.9 µM), for the others: at the top dose signal change, negative = less light; 410,000 tested, 1.2% active; AID 1159524; active = well fitted falling curve with a large enough effect; inconclusive = small, poorly fitted or top-dose-only effect; inactive = no such curve, though single readings can be large or run the other way; tested in HEK293T cells; note: % is set by controls: 0 for no effect and ±100 for the full control effect; nearly all actives have a fitted effect of over 45% in size; luciferase light after 4 h
Lassa entry inh: inhibitors of Lassa virus binding or cell entry | Lassa virus pseudotype entry inhibition, cell reporter; control for the full effect not named in the record | Potency, µM (top dose mostly 37.9 µM), for inactives: at the top dose activity change, negative = inhibition, usual class: inhibitors | 300,000 tested, 1.2% active | AID 540256; active means well fitted inhibition curve with a large enough effect; inconclusive means small, poorly fitted or top-dose-only effect, or effect the other way; inactive means flat fitted curve, though single readings scatter; tested in HEK293 cells; note: % is set by controls: 0 for no effect and ±100 for the full control effect; nearly all actives have a fitted effect of over 50% in size; luciferase read-out
Cruzain inh Det: inhibitors of Trypanosoma cruzi cruzain with detergent | P25779 | purified cruzain, Z-FR-AMC fluorescence, 0.01% Triton | Potency, µM, inactives show max response, negative = inhibition, usual class: inhibitors | 200,000 tested, 0.43% active;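 note: plate controls were neutral wells for no effect and buffer without enzyme for full effect; nearly all actives have a fitted effect of over 40% in size; top concentration of the series not given in the record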
Target sequence (P25779 123-467 limits assumed): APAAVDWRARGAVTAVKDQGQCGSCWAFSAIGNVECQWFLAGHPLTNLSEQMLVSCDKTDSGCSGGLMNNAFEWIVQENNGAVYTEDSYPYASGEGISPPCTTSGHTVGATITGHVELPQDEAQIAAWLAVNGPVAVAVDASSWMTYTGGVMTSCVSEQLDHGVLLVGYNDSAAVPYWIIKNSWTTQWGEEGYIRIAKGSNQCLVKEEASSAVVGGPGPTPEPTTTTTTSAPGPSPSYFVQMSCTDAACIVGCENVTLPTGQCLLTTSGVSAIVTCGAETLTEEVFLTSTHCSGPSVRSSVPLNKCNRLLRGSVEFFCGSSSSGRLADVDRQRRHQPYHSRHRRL
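Enzyme 1.5 nM, Z-FR-AMC 2 uM, NaOAc 100 mM pH 5.5, DTT 5 mM, Triton X-100 0.01%; 15 min RT compound preincubation; kinetic ex360/em450, 60 s delta.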
Cruzain inh noDet: blocks cruzain activity in detergent-free assay; P25779; AID 1476; Potency, µM, without a hit: max response, negative = inhibition, hits mostly inhibitors; 200,000 tested, 2.3% active; purified cruzain, Z-FR-AMC fluorescence, no detergent;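 note: plate controls were enzyme without inhibitor for no effect and buffer without enzyme for full effect; nearly all actives have a fitted effect of over 40% in size; top concentration of the series not given in the record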
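Purified cruzain at 1.5 nM, pre-incubated 15 min with compound at room temperature in 100 mM sodium acetate pH 5.5, 5 mM DTT, 0.00005% Triton X-100. Reaction started with 2 uM Z-FR-AMC; AMC fluorescence increase over 60 s gives rate.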
Active calls of the source: *; ? = inconclusive; . = not tested or not shown; & = joins results of further samples; [ ] = remark or other dose. Unless noted, calls come from the whole dose curve; as a rule, active = well fitted curve in the direction sought with a large enough effect; inconclusive = small, poorly fitted or top-dose-only effect, or another doubt; inactive = no such curve, though single readings can be large; an effect the other way counts as inactive or inconclusive. Potency is the fitted concentration of half-maximal effect.

canonical_smiles,RE007 growth inh,Marburg entry inh,NS1 function inh,SARS PLpro yeast,StopGo reporter,Lassa entry inh,Cruzain inh Det,Cruzain inh noDet
Cc1ccc(N2CC(NC(=O)c3ccc(S(=O)(=O)N4CCCC4)cc3)CC2=O)cc1C (stereo unspecified),.,.,.,.,-19%,7%[46.1 µM],-4.3%,22%
CC1(C)CC2(CCO1)N1CC3(C)CN2CC(C)(C1)C3=O (stereo unspecified),29%,25%,.,.,-13%,6%,.,.
O=C(Nc1ccc2c(c1)OCCO2)c1ccc(CN2CCOCC2)cc1,-5%,-1%,-5%,3%,-1%,-25%,5.4%,7%
O=C1OCCC1(c1ccccc1)c1ccccc1,21%,1%[46.1 µM],.,-2%,-3%,?,.,.
CCN(CC)S(=O)(=O)c1cccc(C(=O)N/N=C/c2ccc(O)c(O)c2O)c1,3%,1%,15%,5µM*,?,6%,-11%,?
C/C(=N\Nc1cccc([N+](=O)[O-])c1)c1ccccc1O,5%,?,.,-10%,9%,10%,.,.
COc1ccccc1C(=O)N/N=C/c1cnc2ccccc2n1,-19%,-19%,-30%,-19%,20%,?,-9.0%,5%
CC(C)(C)NC(=S)NNC(=O)[C@H]1C[C@@H]1c1ccccc1,3%,18%[46.1 µM],0%,-2%,66%[activator],0.89µM*,.,.
CCc1noc(C)c1C(=O)Nc1nc(-c2ccc(OC)cc2)cs1,-14%,23%[46.1 µM],.,-1%,-12%,-8%,.,.
CCOC(=O)c1c(C)oc2ccc(O)c(CN3CCCCC3)c12,-2%,?,-9%,-3%,.,?,-3.8%,-18%
COc1ccc(N2C(=O)CC(N(CCc3ccc(S(N)(=O)=O)cc3)C(=S)Nc3ccccc3)C2=O)cc1 (stereo unspecified),1%,.,-7%,4%,-4%,.,.,.
O=C(CCCc1c[nH]c2ccccc12)NCCc1c[nH]c2ccccc12,26%,-4%[46.1 µM],29%,0%,?,?,.,.
COc1ccccc1CNC(=O)CN(C)c1nn2c(=O)cc(C)nc2s1,.,-6%[46.1 µM],.,.,3%,-11%[46.1 µM],-1.2%,3%
COc1ccc(NC(=S)Nc2ccc3snnc3c2)cc1,4%,?,6%,-1%,53%[activator],10%,.,.
O=C(COc1ncnc2ccccc12)NCCCN1CCCC1=O,-15%,19%,-1%,-8%,17%,-11%,1.5%,-2%
Cc1c(C2=CCN(S(=O)(=O)c3ccc(Cl)cc3)CC2)c2ccccc2n1CC(=O)N1CCCC1,.,10%[46.1 µM],.,.,?,20%[46.1 µM],-1.4%,-9%
CCOC(=O)Cn1c(CN2CCN(c3cccc(Cl)c3)CC2)nc2c1c(=O)[nH]c(=O)n2C,6%,.,-42%,?,?,.,-7.0%,?
COc1cc2[nH]c(=O)n3nc(-c4ccccc4)nc3c2cc1OC,1%,5%,-8%,19%,-15%,-5%,-7.7%,?
CCOc1ccccc1C(=O)Nc1c[nH]c(=O)[nH]c1=O,3%,-21%[46.1 µM],-1%,-4%,-22%,-13%[46.1 µM],.,.
CSc1cc(-c2ccccc2)[nH]c(=O)c1C#N,2%,.,3%,4%,-15%,.,.,.
CN(Cc1cccc(Cl)c1Cl)c1ccc(S(=O)(=O)N2CCCCC2)cc1[N+](=O)[O-],-7%,?,?,1%,0%,6%,-3.1%,?
CCOc1c2ccc(C(=O)NCCc3cccs3)cc2nn1CC,6%,.,-11%,5%,65%[activator],.,-6.1%,5%
COc1ccc(Nc2nc(N)c(C(=O)c3ccc(OC)cc3)s2)cc1,10%,?,2%,-1%,3%,?,.,.
CN1C(=O)/C(=C\c2ccccc2)Sc2ccc(C(=O)N3CCN(c4ccccn4)CC3)cc21,.,-6%,-21%,6%,.,.,-5.1%,11%
C=CCNC(=O)c1ccc(S(=O)(=O)CC)c(Cl)c1Cl,-4%,3%[46.1 µM],6%,3%,12%,8%[46.1 µM],.,.
CCCc1ccc(Oc2cn[nH]c2-c2ccc(O)cc2O)cc1,?,-20%,-74%,-17%,0%,?,-7.7%,-10%
CC(C(=O)Nc1cccc([N+](=O)[O-])c1)N1C(=O)NC2(CCCC2)C1=O (stereo unspecified),-4%,-9%[46.1 µM],1%,4%,-2%,22%,.,.
Cc1cccc(C(=O)OCC(=O)N2CCC(c3ccccc3)=N2)c1O,-18%,16%,.,-1%,-5%,6%,.,.
COc1ccc2[nH]c(=O)c(CN(CCO)C(=O)c3cccs3)cc2c1,-6%,-7%,-3%,9%,-15%,3%,0.6%,0%
O=C(Nn1c(-c2ccc(Br)cc2)nc2ccccc2c1=O)c1ccc([N+](=O)[O-])cc1,1%,21%[46.1 µM],14%,13%,?,12%,-5.5%,-4%
CCOC(=O)c1cccc(NC(=O)CCSCCc2ccccn2)c1,.,.,.,.,-3%,17%[46.1 µM],0.1%,-12%
CC1(C)Cc2c(C#N)c(N)n(-c3ccccc3)c(=S)c2CO1,4%,4%[46.1 µM],4%,1%,-9%,22%,.,.
O=C(NCc1ccccn1)C1CCC(CNS(=O)(=O)c2cccc3nsnc23)CC1 (stereo unspecified),5%,.,0%,-1%,-5%,.,.,.
Cc1onc(-c2ccccc2Cl)c1C(=O)Nc1ccc(CN2CCCC2)cc1,11%,-18%,6%,1%,-18%,4%,1.3%,-1%
CC(C)C1NC(=O)[C@H](CCCCN)NC(=O)[C@@H](Cc2c[nH]c3ccccc23)NC(=O)[C@H](Cc2ccc(O)cc2)NC(=O)[C@H](C)N(C)C(=O)[C@H](Cc2ccccc2)NC1=O (stereo partly specified),.,?,30%,.,.,.,-11%,12%
CCCNC(=O)Cn1cnc2sc(C(=O)N3CCC4(CC3)OCCO4)c(C)c2c1=O,2%,.,2%,0%,-8%,.,.,.
COc1cc(NC2=CC(=O)CC(C)(C)C2)cc(OC)c1OC,-1%,23%&23%,-3%,-1%,-8%,4%,1.8%,2%
CCCN1CCC(=O)N([C@H](CSc2ccc(OC)cc2)CC(C)C)CC1,-8%,.,4%,0%,28%,.,.,.
CC(=O)NC1C(=O)N=C(SCC(=O)NCc2ccccc2)NC1=O (stereo unspecified),4%,-5%,1%,-11%,.,3%,-1.4%,-10%
Cc1ccc(CNC(=O)C2CCCN(c3ncnc4c3nc3n4CCCCC3)C2)cc1 (stereo unspecified),-1%,.,9%,0%,?,.,.,.
Cc1c(O)nc(SCC(=O)Nc2nccs2)n(-c2ccccc2F)c1=O,-7%,-1%,17%,0%,-21%,?,.,.
O=C(Cc1ccc(Br)cc1)NCCCn1ccnc1,9%,-6%,9%,1%,-9%,?,.,.
Cc1ccc(C2C(C#N)=C(N)Oc3cc4c(cc32)OCO4)cc1 (stereo unspecified),-1%,?,-2%,-9%,-32%,?,-8.7%,2%
Cc1ccc(CNC(=O)CSc2nc3ccccc3[nH]2)cc1,-4%,.,16%,3%,3%,.,.,.
COc1ccc(-c2nc3ccccc3c(=O)n2CCCn2ccnc2)cc1,12%,-1%,?,4%,-6%,-1%,-8.8%,4%
CC1CC(C)(C)CC2(C1)NC(=O)N(CC(=O)N1CCN(S(=O)(=O)c3cccc(F)c3)CC1)C2=O (stereo unspecified),2%,26%[46.1 µM],.,1%,-18%,9%[46.1 µM],.,.
Cc1ccc(NC(=O)C(C)n2nnc3sc4c(c3c2=O)CCCC4)cc1Cl (stereo unspecified),.,0%[46.1 µM],.,.,0%,?,-4.4%,-26%
O=C(Cn1ncc2c([nH]c3ccccc32)c1=O)N1CCc2ccccc2C1,-2%,.,-6%,-5%,-20%,.,.,.
CC(=O)OC(COc1cccc(C)c1)Cn1cnc2ccccc21 (stereo unspecified),-9%,?,-3%,0%,-12%,0%,.,.
Cc1cccc(C)c1N1C(=O)C2ON(c3ccccc3)C(c3ccncc3)C2C1=O (stereo unspecified),-13%,-1%,-50%,-28%,-23%,3%,1.2%,?
Cc1c(Br)cc(-c2nnco2)cc1Br,16%,0%,-16%,1%,0%,23%,1.7%,1%
CCCC(=O)OCC(=O)Nc1ccccc1Sc1ccccc1,26%,11%,-15%,-22%,-10%,1%,-7.5%,-7%
COc1ccc(S(=O)(=O)N2CCC(C(=O)N3CCOCC3)CC2)cc1OC,-3%,4%,11%,-4%,.,7%,1.2%,-5%
O=C(c1ccccc1F)N1CCN(c2ccccc2F)CC1,-4%,-5%,-13%,-11%,11%,0%,0.7%,5%
CCOC(=O)c1ccccc1NC(=O)c1ccc(NS(C)(=O)=O)cc1,-3%,-19%,-23%,-10%,.,-17%,-6.7%,?
O=C1NC(=O)c2c(Br)c(Br)c(Br)c(Br)c21,8%,6%[46.1 µM],.,.,-10%,12%[46.1 µM],.,.
O=C(COC(=O)c1ccccc1NCCO)NCCc1ccccc1,?,6%,.,10%,2%,12%[46.1 µM],.,.
CC(=O)N1CCN(c2ccc(NC(=O)c3cccc(OCc4ccccc4)c3)cc2)CC1,15%,4%,-10%,8%,0%,-18%,3.2%,?
CC1(c2ccc(Cl)cc2)NC(=O)N(CC(=O)NC2CCCCC2)C1=O (stereo unspecified),4%,5%[46.1 µM],.,9%,-11%,-6%[46.1 µM],.,.
CCN1C(=O)c2cccc3c(S(=O)(=O)NCC4CCCO4)ccc1c23 (stereo unspecified),16%,.,-11%,0%,31%[activator],.,.,.
CCn1c(=N)n(CCOc2ccc(OC)cc2)c2ccccc21,6%,?,-5%,-5%,-11%,-5%,3.3%,11%

No enrichment for hits; 4.7% or so of the library scored in one or more.
